# Bioassay records (PubChem)
# RGS16-Gao = modulators of RGS16 binding to Galphao, primary screen, biochemical, human proteins, multiplexed bead flow cytometry. 0.38% of 220,000 active. bead-based flow cytometry RGS16-Galphao binding, fluorescence; actives lie on both sides. binding response (% of control), % at 10 µM;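 active = below 25% or above 175%, edge rows of some plates excepted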;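 also: Galphao activated by GDP with aluminum fluoride before binding; 100% = wells without compound and 0% = beads without RGS; some results beyond the cut were filed as inactive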
# Target sequence (O15492 whole entry, looked up): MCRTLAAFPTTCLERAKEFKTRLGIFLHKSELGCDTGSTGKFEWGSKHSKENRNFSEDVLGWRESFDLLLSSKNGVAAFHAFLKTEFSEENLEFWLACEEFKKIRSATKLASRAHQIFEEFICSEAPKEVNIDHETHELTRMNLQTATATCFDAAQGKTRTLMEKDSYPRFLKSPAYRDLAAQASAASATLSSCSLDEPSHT
# Target sequence (P09471 whole entry, looked up): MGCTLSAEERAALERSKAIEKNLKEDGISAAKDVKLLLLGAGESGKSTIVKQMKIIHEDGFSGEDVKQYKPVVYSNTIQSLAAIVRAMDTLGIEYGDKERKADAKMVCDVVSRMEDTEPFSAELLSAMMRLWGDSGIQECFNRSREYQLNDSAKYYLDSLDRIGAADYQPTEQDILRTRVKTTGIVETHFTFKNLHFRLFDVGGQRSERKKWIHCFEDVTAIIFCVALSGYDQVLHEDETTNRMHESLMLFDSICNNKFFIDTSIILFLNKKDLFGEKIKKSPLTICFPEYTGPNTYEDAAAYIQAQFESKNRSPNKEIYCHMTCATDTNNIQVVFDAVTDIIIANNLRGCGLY
# HSV replic up = enhancers of HSV replication in host cells, fold increase, host cell viability; HSV replication augmentation in cells; maximum fold increase; 0.005% of 220,000 active;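 active = peak rise of 1.5-fold or more in the series; tested in PC3 cells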;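 also: first round at 10 µM; read as green reporter fluorescence; hits show the peak of a series up to 25 µM; 1 = signal of infected wells without compound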
# GALR2 ag = GALR2 receptor agonists, primary screen, cell-based; Galanin receptor type 2 (Homo sapiens), O43603; GALR2-expressing cells, agonist activation read-out; activation, %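 (tested at 5 µM)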; 0.48% of 140,000 active;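 active = above mean plus 3 SD of all compounds, about 5% in these data, not always enough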;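 also: 0% = vehicle buffer wells and 100% = reference agonist at full effect; tested in CHO reporter cells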
# Target sequence (O43603 whole entry, looked up): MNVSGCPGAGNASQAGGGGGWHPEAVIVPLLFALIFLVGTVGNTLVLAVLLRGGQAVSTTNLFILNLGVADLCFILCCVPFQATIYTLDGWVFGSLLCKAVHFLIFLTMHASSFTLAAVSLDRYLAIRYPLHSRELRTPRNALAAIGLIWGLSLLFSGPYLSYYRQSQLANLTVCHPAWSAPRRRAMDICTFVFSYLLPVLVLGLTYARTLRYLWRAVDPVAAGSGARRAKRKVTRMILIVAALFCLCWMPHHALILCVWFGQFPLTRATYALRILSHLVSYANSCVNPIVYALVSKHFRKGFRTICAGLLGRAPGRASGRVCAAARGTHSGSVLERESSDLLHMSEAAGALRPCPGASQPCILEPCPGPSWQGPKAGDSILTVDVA
# INS promoter inh = inhibitors of insulin promoter-driven GFP, primary screen, imaging, TRM-6 cells (human fetal islet line), eGFP reporter, cell count; inhibition, % at 2 µM; reporter expression induced with tamoxifen; 0.9% of 130,000 active; AID 1273, 2008;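 active = inhibition above the mean plus 3 SD, with well images judged a real hit on visual review, cut at about 60% in these data, passing the limit was not always enough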
# PKD1 inh = inhibitors of human PKD1 kinase, biochemical, fluorescence polarization; Serine/threonine-protein kinase D1 (Homo sapiens), Q15139; PKD1 kinase fluorescence polarization assay; inhibition, %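 (about 10 µM by stock and volumes)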; 0.056% of 200,000 active; AID 797, 2007;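 active = inhibition of 50% or more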;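 also: controls were vehicle for no effect and a reference inhibitor for full effect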
# INS promoter inh cell count = also measured in INS promoter inh; calls as there; normalized cell count, %; measured here: cell count, toxicity; reference of the scale not given here;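 cells exposed to compound for 48 h; stained nuclei by imaging scaled within each plate; lower means fewer cells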
# HSV replic up primary fold = recorded beside HSV replic up, whose call it bears; fold increase; compound at 10 µM; measured here: primary screen fold increase 10 uM; tested in PC3 cells;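 GFP signal in the first replicate; 1 = infected wells without compound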
# Active calls of the source: *; i = inactive; x = not tested or not shown.
SMILES,RGS16-Gao,HSV replic up,HSV replic up primary fold,GALR2 ag,INS promoter inh,INS promoter inh cell count,PKD1 inh
CN(C=C1C(=O)CC(C)(C)CC1=O)CCN1CCNCC1,99,i,0.93,-0.9,18,126,5
NS(=O)(=O)c1ccc(CNC(=O)c2ccc(Cl)c([N+](=O)[O-])c2)cc1,105,i,1,x,x,x,x
COc1ccc(C(=O)Nc2ccccc2C(N)=O)cc1,100,i,1,-3.2,47,132,-4
COC(OC)C(C)NC(=O)NC(=O)c1ccccc1Cl (centres undefined),96,i,1,x,x,x,x
O=[N+]([O-])c1ccccc1CNc1ccc(F)c(Cl)c1,109,i,0.97,-0.7,-53,44,3
CN(C)c1ccc(/C=N/NC(=O)CNC(=O)c2ccc3c(c2)OCCO3)cc1,103,i,1.1,x,28,154,-2
COC(=O)C1=C(C)N(C)C(=O)NC1c1ccc([N+](=O)[O-])o1 (centres undefined),102,i,0.99,x,x,x,-3
Cn1ccnc1SCC(=O)Nc1cccc(S(=O)(=O)N2CCCCCC2)c1,102,i,1.1,x,-9,94,-1
CCCC(=O)NNC(=O)Nc1ccccc1,104,i,1,-4.0,x,x,6
Cc1cc(C(=O)CSc2ccc(Cl)cc2)cc(C)c1OC(=S)N(C)C,107,i,0.99,-3.0,9,61,0
Cc1cc(C)n2nc(SCn3nnc4ccccc4c3=O)nc2n1,83,i,0.76,-2.6,x,x,-7
CCCCN(C)Cc1cc(=O)oc2cc3c(cc12)CCCC3,108,i,0.98,x,x,x,x
S=C1NCN(Cc2ccco2)CN1Cc1ccco1,99,i,1,x,x,x,x
CCn1c(-c2ccccc2)c(C(=O)CC#N)c2ccccc21,102,i,1.2,x,x,x,3
O=C(Nc1ccc2c(c1)OCO2)C1CCCN(c2nc3ccccc3s2)C1 (centres undefined),71,i,0.88,-1.7,x,x,-2
CCOC(=O)c1ccccc1-c1cn2cc(Cl)ccc2n1,102,i,0.97,x,x,x,-2
O=C(CCN1C(=O)COc2ccccc21)NCc1ccco1,99,i,0.9,-1.9,x,x,-1
O=C(CN1CCN(Cc2ccccc2)CC1)N=Nc1c(O)[nH]c2ccccc12,114,i,1,-0.6,31,93,8
COc1ccc(/C=C\C(=O)c2c(O)ccc3c(C)cc(=O)oc23)cc1OC,101,i,0.67,-2.4,50,108,-4
C[C@@H](C(=O)NCc1ccccn1)[C@H]1C[C@]1(C)[C@H](NC(=O)OCc1ccccc1)c1ccccc1,53,i,0.93,-2.7,14,100,12
CCOC(=O)c1oc2cccc(O)c2c1CN1CCOCC1,-101,i,0.9,-0.2,x,x,8
Cn1c(=O)n(C/C=C/c2ccccc2)c(=O)c2c1nc1n2CCCN1c1ccc(F)cc1,99,i,0.92,-0.4,x,x,-4
Cc1nnc(NC2(C(F)(F)F)C(=O)Nc3c2c(=O)n(C)c(=O)n3C)s1 (centres undefined),102,i,0.99,3.7,-2,34,-7
O=c1[nH]c(C(Cl)Cl)nc2sc3c(c12)CCN(Cc1ccccc1)C3,100,i,1.1,-0.6,-53,62,-11
COC(=O)c1cc(OC)c(OC)cc1NC(=S)Nc1cccc(C(C)=O)c1,108,i,1.1,-0.6,x,x,-11
COCCN1C=C(C(=O)OC)C(c2ccc(Cl)cc2)C(C(=O)OC)=C1,103,i,0.78,x,x,x,-13
CCCCN(CC)CCNC(=O)c1nn(-c2ccc(OC)cc2)c(=O)c2c1c1ccccc1n2C,108,i,0.83,x,13,161,3
COc1ccc(C2C(C#N)=C(C)NC3=C2S(=O)(=O)c2ccccc23)cc1 (centres undefined),114,i,0.7,0.3,-147,77,-9
COc1ccc(Oc2nc(-c3ccccn3)ncc2OC)cc1,43,i,0.94,x,-22,101,0
COC(=O)c1sc(NC(=O)COc2ccc(C)cc2)nc1C,104,i,0.96,-0.7,-12,74,-2

# 5 compounds drawn at random from those above, as already listed:
SMILES,RGS16-Gao,HSV replic up,HSV replic up primary fold,GALR2 ag,INS promoter inh,INS promoter inh cell count,PKD1 inh
CN(C=C1C(=O)CC(C)(C)CC1=O)CCN1CCNCC1,99,i,0.93,-0.9,18,126,5
COc1ccc(Oc2nc(-c3ccccn3)ncc2OC)cc1,43,i,0.94,x,-22,101,0
CCCCN(C)Cc1cc(=O)oc2cc3c(cc12)CCCC3,108,i,0.98,x,x,x,x
CCCC(=O)NNC(=O)Nc1ccccc1,104,i,1,-4.0,x,x,6
COc1ccc(C(=O)Nc2ccccc2C(N)=O)cc1,100,i,1,-3.2,47,132,-4

# Later entries.
SMILES,RGS16-Gao,HSV replic up,HSV replic up primary fold,GALR2 ag,INS promoter inh,INS promoter inh cell count,PKD1 inh
O=S(=O)(c1ccccc1Cl)N1CCCC1c1nc(-c2ccc(Cl)cc2)no1 (centres undefined),34,i,0.84,0.1,-4,150,3
O=S(=O)(c1cccs1)N1CN(Cc2ccc(Cl)cc2)c2nc3ccccc3nc21,105,i,0.98,-0.7,4,108,-5
COc1ccc2cc(C(=O)NCC(=O)O)sc(=O)c2c1OC,100,x,x,0.2,29,183,-2
CN(N)c1nc(-c2ccccc2)nnc1C(F)(F)F,100,i,0.97,-0.8,6,121,-11
CCn1c(SCC(=O)OC)nnc1-c1ccccc1,97,i,0.93,x,x,x,-1
COc1ccc(Cl)cc1C(=O)NCCc1ccc(S(=O)(=O)NC(=O)NC2CCCCC2)cc1,88,i,0.73,-0.2,-33,110,1
O=C(Nc1cnn(Cc2ccc(F)cc2)c1)C(c1ccccc1)c1ccccc1,92,i,0.96,-2.0,56,48,-8
O=C(O)c1cccnc1SCc1cccc(Cl)c1,93,i,0.95,x,x,x,-3
Cc1ccc(S(=O)(=O)N2CCCC2C(=O)n2nc(C)cc2C)cc1 (centres undefined),104,x,x,-1.0,70,108,3
CN(Cc1nc(-c2ccc(C(F)(F)F)cc2)no1)C1CCOCC1,119,i,0.99,x,x,x,-3
O=C(Cn1nc(C(=O)O)c2ccccc2c1=O)NCc1ccco1,100,i,1.1,x,x,x,-7
COc1ccc(NC(=S)Nc2ccc(S(=O)(=O)N3CCOCC3)cc2)c(OC)c1,163,i,0.98,-0.7,x,x,11
O=C(/C=C/c1ccco1)N1CCN(c2ccccc2)CC1,98,i,1,-0.2,18,126,-4
O=C(NN=C1CCCC1)c1cc(-c2ccc(F)cc2)nc2ccccc12,96,i,0.82,x,57,97,0
N#Cc1nc(-c2ccc(OCc3ccccc3)cc2)oc1NCCCN1CCOCC1,98,i,0.9,-0.8,50,63,-11
CCOc1cc(-c2noc(CCC(=O)N3CCOCC3)n2)ccc1OC,98,i,1.1,-0.7,x,x,-15
CC(C)c1nc(SCC(=O)Nc2ccc3c(c2)OCCO3)c2c(=O)n(C)c(=O)n(C)c2n1,100,i,0.85,-0.6,x,x,3
CSc1nc2c(cc1C#N)CCC2,98,i,0.92,x,x,x,x
COc1ccc(CNc2ncnc(N)n2)cc1,98,i,0.79,-3.7,22,94,-3
CCOC(=O)N1CCN(C(=O)c2cnsn2)CC1,97,i,0.83,0.0,-64,122,-5
O=C(Cc1ccccc1Cl)NCCCn1ccnc1,112,i,1,-0.4,-48,78,-8
C=CCc1cc(Cl)ccc1OCCNCCN1CCOCC1,109,i,0.9,x,x,x,-1
Cc1nn(C(C)C(=O)NCc2ccccc2Cl)c(=O)c2c1sc1ccccc12 (centres undefined),96,i,1,-2.6,25,92,-8
C/C(=N/NC(=O)c1cc(C)[nH]n1)c1ccco1,102,i,0.86,x,x,x,x
CCO[C@@H]1OC(C(=O)N2CCOCC2)=C[C@H](C2CC2)[C@H]1CCCO,102,i,0.9,x,x,x,6
CCOC(=O)c1c(-c2cccc3ccccc23)csc1NC(=O)C1C2CCC(O2)C1C(=O)O (centres undefined),99,i,1,-0.5,53,79,1
O=C(CN1C(=O)S/C(=C\C=C\c2ccccc2)C1=O)Nc1ccccc1C(=O)O,94,i,1.3,x,x,x,x
c1ccc(CSc2ncnc3ccccc23)cc1,97,i,1.1,x,-65,81,6
CC(=O)Nc1ccc(NC(=O)Cn2c(=O)n(-c3ccc(C)cc3)c(=O)c3oc4ccccc4c32)cc1,105,i,0.93,x,-35,46,0
COC(=O)CCc1nc2c(C#N)c(-c3ccc(Cl)cc3)ccn2n1,111,i,1.1,x,11,88,-2
CCCc1ccc(OC(=O)c2ccc(O)cc2Cl)cc1,74,x,x,x,-50,51,-7
CN(NC1OC(=O)c2ccccc21)c1ncc(C(F)(F)F)cc1Cl (centres undefined),111,i,1,x,x,x,x
N#Cc1cccc(NC(=O)NCCc2c[nH]c3ccccc23)c1,118,x,x,-1.6,10,76,0
CC1(OC(=O)CCc2ccccc2)C(=O)C=C2C=C(c3ccc(C#N)cc3)N(C3CCCCC3)C=C2C1=O (centres undefined),77,i,0.81,x,x,x,x
Brc1ccc(-c2noc(COc3ccc4c(c3)CCC4)n2)o1,108,i,0.93,-1.0,29,24,5
CCC(C)(C)NC(=O)C(c1ccco1)N(C(=O)c1csnn1)c1cccc(F)c1 (centres undefined),81,i,0.87,-2.2,-86,64,-5
CN(C)c1ccc(C(=S)N2CCOCC2)cc1,103,i,0.93,1.1,-150,81,-8
C=CCN(CC=C)Cc1c(C)[nH]c2c(C)c(C)ccc2c1=O,109,i,1,x,x,x,2
Cc1cc(C)nc(N/N=C/c2cccc([N+](=O)[O-])c2)n1,99,i,0.97,x,x,x,x
CCOc1ncccc1C(=O)OCC(=O)NCc1ccc2c(c1)OCO2,107,i,0.99,x,8,31,-1

# Ordered by value in GALR2 ag (descending): 4 from the list above
SMILES,GALR2 ag
CN(C)c1ccc(C(=S)N2CCOCC2)cc1,1.1
Brc1ccc(-c2noc(COc3ccc4c(c3)CCC4)n2)o1,-1.0
N#Cc1cccc(NC(=O)NCCc2c[nH]c3ccccc23)c1,-1.6
CCC(C)(C)NC(=O)C(c1ccco1)N(C(=O)c1csnn1)c1cccc(F)c1 (centres undefined),-2.2

# Additional records.
SMILES,RGS16-Gao,HSV replic up,HSV replic up primary fold,GALR2 ag,INS promoter inh,INS promoter inh cell count,PKD1 inh
COc1ccc(-n2c(Cc3cccn3C)nnc2SCC(=O)Nc2cccc(F)c2)cc1,96,i,0.9,-1.0,-20,147,-11
CC(=O)Nc1ccc(OC(F)(F)Cl)cc1,102,i,1.1,x,x,x,-3
CC(NC(=O)c1cccc(S(=O)(=O)N(C)C)c1)c1nc2ccccc2[nH]1 (centres undefined),98,i,0.97,x,x,x,-7
Cc1c(N2C(=O)CSC2c2ccco2)c(=O)n(-c2ccccc2)n1C (centres undefined),96,i,0.99,x,x,x,x
C[C@H](NC(=O)Nc1cccc(Br)c1)C(=O)O,99,i,0.93,x,x,x,x
Cc1[nH]c(C)c2c(=O)[nH]ncc12,96,i,1,x,x,x,x
COCCN1C(=O)C(=O)/C(=C(/O)c2cccc(OC)c2)C1c1ccc(C)o1 (centres undefined),93,i,0.79,-3.5,4,124,-10
Cc1ccc(CNC(=O)C2CC(c3ccccc3[N+](=O)[O-])=NO2)cc1 (centres undefined),111,i,1,-2.2,-39,127,-5
O=C(NCc1ccc2c(c1)OCO2)c1ccc(NC(=O)C2CCCO2)cc1 (centres undefined),107,i,0.99,-0.2,6,99,-12
CC1CN(CCCCN2C(=O)c3ccccc3C2=O)CC(C)O1 (centres undefined),99,i,0.94,x,17,152,-6
Cc1cc(C)cc(C(=O)NC(=S)Nc2ccc(Cc3ccncc3)cc2)c1,109,i,0.72,1.3,33,125,8
CCn1nc(C(=O)NNC(=O)COc2ccccc2C)c2ccccc2c1=O,97,i,0.9,-2.0,x,x,-5
O=c1[nH]nc(Cc2ccccc2)c2ccccc12,104,i,0.86,-2.6,0,81,-5
O=C(C[n+]1ccccc1)N/N=C/c1ccccc1[N+](=O)[O-],102,i,1.1,x,x,x,3
CN(CCCNC(=O)C1CCN(S(=O)(=O)c2cccc3nsnc23)CC1)Cc1ccccc1,98,i,1.1,-1.1,8,68,3
CCCCN(C)C(=O)c1nc2ccccn2c1CN1CCN(C(=O)c2cccs2)CC1,102,i,0.96,x,x,x,0
CCCCn1c(/N=C/c2c[nH]c3ccccc23)nc2ccccc21,102,i,1.1,-2.4,-54,57,1
COc1ccccc1Oc1ccccc1C(=O)O,107,i,0.76,-0.6,13,74,11
NNc1nc(-c2ccccc2)nc2sc3c(c12)CCCC3,101,i,1.1,0.1,31,113,1
O=C(COc1ccccc1)c1cn(CC(=O)N2CCCC2)c2ccccc12,105,i,0.87,x,x,x,3
Nc1nc(-c2ccccc2)cs1,100,i,0.65,-1.9,-33,122,2
CCOc1ccccc1N(CC(=O)NC1CCCCC1)C(=O)c1nsc(Cl)c1Cl,110,i,1,x,-19,31,-1
